# Assay outcomes: PubChem BioAssay, Broad Institute
# HIV Env fusion – HIV envelope-mediated fusion inhibition. AID 651610. inhibition, % at 12.3 µM. 360,000 compounds, 1.1% hits. HeLa-JRFL Env/CEM21 cell fusion, luciferase;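 active = mean replicate inhibition score of at least 50 and every replicate individually at or above 50; inconclusive = only one of the two criteria met; inactive = mean below 50 and not all replicates reaching 50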;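 also: 0% = plate neutral controls and 100% = maraviroc near 300 nM; one replicate is shown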
# * = called active by the depositor; ? = inconclusive; [ ] = dose if it differs, or a comment. The list is partial; the hit share may differ from the screen's.
compound	HIV Env fusion
C[C@H](CO)N1C[C@H](C)[C@@H](CN(C)C(=O)C2CC2)Oc2cc(C3=CCCC3)ccc2S1(=O)=O	11.7[16.7 µM]
CO[C@@H]1CN(C)C(=O)c2cc(NS(=O)(=O)C3CCCCC3)ccc2OC[C@H](C)NC[C@@H]1C	-18.6[16.7 µM]
CCN1[C@@H]2Cn3c(ccc(-c4ccc(F)cc4)c3=O)[C@H]1[C@@H](C(=O)Nc1ccccc1)[C@@H]2CO	-26.2[16.7 µM]
C[C@@H]1CN([C@H](C)CO)C(=O)Cc2cc(NC(=O)c3ccncc3)ccc2O[C@@H]1CN(C)Cc1ccc(Cl)c(Cl)c1	-4.0[16.7 µM]
OC(c1ccccc1)(c1ccccc1)C1CCN(CCCOc2ccc(C(F)(F)F)cc2)CC1	-2.1
CN1C(=O)c2cc(NC(=O)c3ccc(F)c(F)c3)ccc2OC[C@H]2O[C@H](CC(=O)N[C@@H]3CCN(Cc4ccccc4)C3)CC[C@@H]21	6.2[16.7 µM]
CC(C)NC(=O)N(C)C[C@H]1OCCCC[C@H](C)Oc2ccc(NC(=O)CCCN(C)C)cc2C(=O)N([C@@H](C)CO)C[C@H]1C	-10.8[16.7 µM]
CCCNC(=O)Nc1ccc2c(c1)C(=O)N(C)C[C@H](OC)[C@H](C)CN(C(=O)C1CCCCC1)[C@@H](C)CO2	-11.3[16.7 µM]
CC(=O)OCC(COC(C)=O)(CN1C(=O)c2ccccc2C1=O)CN1C(=O)c2ccccc2C1=O	14.2
O=C(Nc1ccc(F)cc1)OC[C@@H]1CSCCS(=O)(=O)N1	-0.5
O=C(/C=C(\Nc1ccc(Cl)c(Cl)c1)c1ccccc1)c1ccccc1	15.3
C[C@@H]1CN([C@@H](C)CO)C(=O)Cc2cc(NS(=O)(=O)c3cn(C)cn3)ccc2O[C@H]1CN(C)S(=O)(=O)c1ccc(F)cc1	-27.1[16.7 µM]
CCOC(=O)C1=C[C@@H](C(C)(C)C)N(S(=O)(=O)c2ccc([N+](=O)[O-])cc2)[C@H]1c1cccc(Cl)c1	70.9*
CC1=CC(O)(c2ccccn2)P(=O)(c2ccccc2)C=C1C (stereo unspecified)	5.0
COc1cccc(CN2CC3(CN(CC4CC4)C3)c3c([nH]c4cc(OC)ccc34)[C@H]2CO)c1	-13.3[16.7 µM]
COc1ccc(S(=O)(=O)N(C)C[C@@H]2Oc3cc(-c4cccc(F)c4)ccc3S(=O)(=O)N([C@@H](C)CO)C[C@H]2C)cc1	36.2[16.7 µM]
COC(=O)[C@H](Cc1ccccc1)N1Cc2ccccc2Oc2cc(Br)ccc2S1(=O)=O	?
O=C(NCc1cc(F)cc(F)c1)[C@H]1[C@H](CO)[C@H]2Cn3c(cccc3=O)[C@@H]1N2	-4.5[16.7 µM]
CCCC(=O)Nc1ccc2c(c1)C(=O)N(C)C[C@@H](OC)[C@H](C)CN(C(=O)CN1CCOCC1)[C@H](C)CO2	-1.4[16.7 µM]
COc1ccc(CN(C)C[C@@H]2Oc3ccc(NS(=O)(=O)c4cccs4)cc3C(=O)N([C@@H](C)CO)C[C@@H]2C)cc1	9.4[16.7 µM]
COc1ccc(CNC(=O)[C@@H](Cc2ccccc2)NC(=O)[C@H]2O[C@@H](n3ccc(=O)[nH]c3=O)[C@H](O)[C@@H]2O)cc1	-13.6
O=C(C[C@H]1CC[C@H]2[C@@H](COC[C@@H](O)CN2C(=O)c2cccnc2)O1)NC1Cc2ccccc2C1	9.8[16.7 µM]
Cc1ccc2nc(-c3ccc(Cl)cc3)c(Cc3cccc(F)c3)n2c1	-5.0
CC(C)NC(=O)N(C)C[C@@H]1Oc2ccc(NS(=O)(=O)c3cccs3)cc2C(=O)N([C@H](C)CO)C[C@H]1C	12.4[16.7 µM]
COc1ccc(NC(=O)N(C)[C@H]2C[C@H]3c4[nH]c5c(-c6ccccc6)cccc5c4CCN3C(=O)[C@H]2[C@H](C)O)cc1	-11.3
C[C@@H]1CCCCO[C@@H](CN(C)S(C)(=O)=O)[C@@H](C)CN([C@@H](C)CO)C(=O)c2cc(N(C)C)ccc2O1	2.7[16.7 µM]
C/C=C/c1ccc2c(c1)O[C@@H](CNC)[C@H](C)CN([C@@H](C)CO)S2(=O)=O	-0.1[16.7 µM]
CC(C)NC(=O)Nc1ccc2c(c1)C(=O)N([C@@H](C)CO)C[C@H](C)[C@@H](CN(C)C(=O)NC1CCCCC1)OCCCC[C@H](C)O2	-65.3[16.7 µM]
COc1ccc(NC(=O)N(C)C[C@@H]2Oc3ccc(NS(=O)(=O)c4ccc(C)cc4)cc3CC(=O)N([C@H](C)CO)C[C@@H]2C)cc1	-3.5[16.7 µM]
C[C@@H]1CN([C@H](C)CO)C(=O)c2cc(NC(=O)Cc3ccccc3)ccc2O[C@H]1CN(C)Cc1ccc2c(c1)OCO2	-15.3[16.7 µM]

# Reprinted from the results shown for reference:
compound	HIV Env fusion
COc1ccc(CN(C)C[C@@H]2Oc3ccc(NS(=O)(=O)c4cccs4)cc3C(=O)N([C@@H](C)CO)C[C@@H]2C)cc1	9.4[16.7 µM]
COc1ccc(CNC(=O)[C@@H](Cc2ccccc2)NC(=O)[C@H]2O[C@@H](n3ccc(=O)[nH]c3=O)[C@H](O)[C@@H]2O)cc1	-13.6
O=C(C[C@H]1CC[C@H]2[C@@H](COC[C@@H](O)CN2C(=O)c2cccnc2)O1)NC1Cc2ccccc2C1	9.8[16.7 µM]
Cc1ccc2nc(-c3ccc(Cl)cc3)c(Cc3cccc(F)c3)n2c1	-5.0
CC(C)NC(=O)N(C)C[C@@H]1Oc2ccc(NS(=O)(=O)c3cccs3)cc2C(=O)N([C@H](C)CO)C[C@H]1C	12.4[16.7 µM]
COc1ccc(NC(=O)N(C)[C@H]2C[C@H]3c4[nH]c5c(-c6ccccc6)cccc5c4CCN3C(=O)[C@H]2[C@H](C)O)cc1	-11.3
C[C@@H]1CCCCO[C@@H](CN(C)S(C)(=O)=O)[C@@H](C)CN([C@@H](C)CO)C(=O)c2cc(N(C)C)ccc2O1	2.7[16.7 µM]

# Further compounds
compound	HIV Env fusion
O=C(/C=C(\Nc1cc(Cl)c(F)c(Cl)c1)c1ccccc1)c1ccccc1	10.6
CC(=O)c1ccc(S(=O)(=O)NCC2CCN(C(=O)C(=O)c3cccs3)CC2)cc1	-20.9
C[C@@H]1CCCCO[C@@H](CN(C)CC2CCCCC2)[C@@H](C)CN([C@H](C)CO)C(=O)c2cc(NC(=O)c3ccncc3)ccc2O1	18.4[16.7 µM]
C[C@@H]1CN([C@H](C)CO)C(=O)c2ccccc2-c2ccccc2CO[C@H]1CN(C)S(=O)(=O)c1ccsc1	15.4[16.7 µM]
O=C(C[C@H]1C[C@@H]2c3cc(NC(=O)Nc4ccccc4)ccc3O[C@@H]2[C@H](CO)O1)NCCN1CCCCC1	-7.9[16.7 µM]
C=CCN1C(=O)c2[nH]nc(-c3ccccc3)c2C1c1ccc(C)cc1 (stereo unspecified)	15.3
COc1ccccc1NC(=O)N1C[C@H](O)COC[C@@H]2O[C@@H](CC(=O)NCc3ccccc3)CC[C@H]21	-16.5[16.7 µM]
COC(=O)C[C@H]1CC[C@@H]2[C@H](COc3ccc(NC(=O)Nc4cc(C)cc(C)c4)cc3C(=O)N2C)O1	-2.1[16.7 µM]
Cc1nn(C)cc1NC(=O)C[C@H]1CC[C@H]2[C@H](COc3ccc(NC(=O)C4CCOCC4)cc3C(=O)N2C)O1	-0.5[16.7 µM]
CN1CCN(C(=O)C[C@H]2CC[C@@H]3[C@H](COc4ccc(NC(=O)c5cscn5)cc4C(=O)N3C)O2)CC1	-11.6[16.7 µM]
CC(C)C[C@H]1CN([C@@H](Cc2ccccc2)CN2CCC[C@H]2CN2C(=O)C(=O)NC[C@@H]2Cc2ccccc2)C(=O)C(=O)N1CC1CCCCCC1	3.6
COC(=O)[C@]12C[C@H](CC(=O)N3CCN(C(=O)c4ccco4)CC3)C(=O)N(Cc3ccc4c(c3)OCO4)C1=C[C@H](C(C)(C)C)O[C@@H]2C	4.4
COc1cccc(-c2ccc([C@H]3[C@@H](CO)N4C(=O)CN(C(=O)C5CCCC5)C[C@@H]34)cc2)c1	21.6[16.7 µM]
COc1cccc(CNC(=O)[C@H]2[C@H](CO)[C@H]3Cn4c(cccc4=O)[C@@H]2N3C(=O)C2CCCCC2)c1	5.4[16.7 µM]
O=C(NC1CCCCC1)[C@H]1N[C@H]2c3ccc(-c4cccc(F)c4)c(=O)n3C[C@H]2[C@@H]1CO	1.0[16.7 µM]
CCCN1C(=O)c2[nH]nc(-c3ccccc3)c2C1c1ccc(F)cc1 (stereo unspecified)	6.0
CN1C(=O)c2cc(NS(=O)(=O)c3cccc(F)c3)ccc2OC[C@@H]2O[C@H](CC(=O)NCCN3CCCCC3)CC[C@@H]21	-7.4[16.7 µM]
O=C(C[C@H]1CC[C@H]2[C@@H](COC[C@H](O)CN2Cc2ccc3c(c2)OCO3)O1)Nc1ccc(-c2ccccc2)cc1	7.1[16.7 µM]
O=C(C[C@@H]1C=C[C@H](NC(=O)c2ccncc2)[C@H](CO)O1)NCC1CC1	2.4[16.7 µM]
CNC[C@H]1Oc2c(NC(=O)NC(C)C)cccc2C(=O)N([C@@H](C)CO)C[C@H]1C	2.7[16.7 µM]
CN1C(=O)c2cc(NC(=O)c3ccc(Cl)cc3)ccc2OC[C@H]2O[C@@H](CC(=O)O)CC[C@H]21	6.7[16.7 µM]
CCS(=O)(=O)Nc1ccc2c(c1)C(=O)N(C)C[C@H](OC)[C@H](C)CN(CCC(F)(F)F)[C@H](C)CO2	3.0[16.7 µM]
CO[C@H]1CN(C)C(=O)c2cc(NC(=O)c3ccccc3F)ccc2OC[C@H](C)NC[C@H]1C	1.0[16.7 µM]
Cc1[nH]nc2c1C(c1cccc(C(F)(F)F)c1)NC2=O (stereo unspecified)	-7.2
COc1ccc2c3c([nH]c2c1)[C@H](CO)NCC31CN(C(=O)C2CC2)C1	-14.0[16.7 µM]
CO[C@@H]1CN(C)C(=O)c2cc(NC(=O)Nc3ccc(Cl)c(Cl)c3)ccc2OC[C@H](C)NC[C@@H]1C	11.2[16.7 µM]
CNC[C@H]1Oc2cc(-c3cccnc3)ccc2S(=O)(=O)N([C@@H](C)CO)C[C@H]1C	-16.2[16.7 µM]
COc1ccccc1C#Cc1cnc2c(c1)C(=O)N([C@H](C)CO)C[C@@H](C)[C@H](CN(C)S(=O)(=O)c1cn(C)cn1)O2	29.5[16.7 µM]
CCCN1C[C@H](C)[C@H](OC)CN(C)C(=O)c2ccc(NS(=O)(=O)c3cn(C)cn3)cc2OC[C@@H]1C	-4.2[16.7 µM]
CCCN1C[C@H](C)[C@H](OC)CN(C)C(=O)c2cc(NC(=O)Nc3cccc(F)c3)ccc2OC[C@H]1C	3.6[16.7 µM]
Cc1cc(Br)cn2c(Cc3ccccc3C(F)(F)F)c(-c3ccco3)nc12	13.0
CC(C)C#Cc1ccc2c(c1)O[C@@H](CN(C)C(=O)C1CCC1)[C@@H](C)CN([C@H](C)CO)S2(=O)=O	?
CO[C@H]1CN(C)C(=O)c2cc(NC(=O)c3ccccc3F)ccc2OC[C@@H](C)NC[C@@H]1C	-8.6[16.7 µM]
COc1cccc(C(=O)Nc2ccc(Oc3nnc(-c4ccccc4)c4ccccc34)cc2)c1	14.0
O=C1Cn2nnc(-c3ccccc3)c2C2c3cc(Br)ccc3CCN12 (stereo unspecified)	27.8
O=S1(=O)c2ccc(Br)cc2-n2nncc2CN1Cc1cccc(Cl)c1	17.1
C[C@@H]1CN([C@@H](C)CO)C(=O)c2c(c3ccccc3n2C)-c2ccccc2CO[C@@H]1CN(C)C(=O)C1CC1	-6.3[16.7 µM]
C/C=C/c1ccccc1[C@H]1[C@@H](C#N)N(C(=O)Cc2ccccn2)[C@@H]1CO	-20.6[16.7 µM]
CCCNC(=O)c1cc2c(c(-c3cccc(-c4ccc(F)cc4)c3)n1)[C@H](CCO)N([S@@](=O)C(C)(C)C)C2	1.0[16.7 µM]
COCC(=O)N(C)C[C@H]1Oc2ncc(C#CC(C)(C)O)cc2C(=O)N([C@H](C)CO)C[C@@H]1C	-7.5[16.7 µM]
C[C@@H]1CN([C@H](C)CO)C(=O)CCCn2cc(nn2)CO[C@@H]1CN(C)C(=O)OCc1ccccc1	25.8[16.7 µM]
Cc1cc2c(nc1C)CCCN2S(=O)(=O)c1ccc(C(F)(F)F)cc1	2.7
COc1ccc(CN(C)C[C@H]2OCCCC[C@H](C)Oc3ccc(NS(C)(=O)=O)cc3C(=O)N([C@H](C)CO)C[C@H]2C)cc1	12.8[16.7 µM]
C[C@@H]1CN([C@@H](C)CO)C(=O)c2cc(NS(=O)(=O)c3cccs3)ccc2O[C@@H]1CN(C)S(=O)(=O)c1cccs1	-32.2[16.7 µM]
C[C@H]1CN([C@@H](C)CO)C(=O)CCCn2cc(nn2)CO[C@H]1CN(C)Cc1ccc(Oc2ccccc2)cc1	-1.2[16.7 µM]
COc1ccc(S(=O)(=O)N(C)C[C@H]2Oc3c(NC(=O)Nc4ccccc4)cccc3C(=O)N([C@@H](C)CO)C[C@H]2C)cc1	40.4[16.7 µM]
COc1ccc(NC(=O)N(C)C[C@@H]2Oc3ccc(N(C)C)cc3C(=O)N([C@@H](C)CO)C[C@@H]2C)cc1	1.4[16.7 µM]
C[C@H]1CCCCO[C@H](CN(C)S(C)(=O)=O)[C@@H](C)CN([C@@H](C)CO)C(=O)c2cc(NC(=O)c3ccncc3)ccc2O1	-10.4[16.7 µM]
C[C@H](NC(=O)C[C@@H]1CC[C@@H]2[C@@H](COc3ccc(NS(=O)(=O)c4ccc(Cl)cc4)cc3C(=O)N2C)O1)c1ccccc1	-5.1[16.7 µM]
C[C@H]1CN([C@@H](C)CO)C(=O)c2c(c3ccccc3n2C)-c2ccccc2CO[C@H]1CN(C)C(=O)CCN(C)C	20.3[16.7 µM]
